MenB inh = Mtb MenB enzyme inhibition | P9WNP5 | MenB enzyme assay, absorbance read-out; some hits fall short of the stated cut | inhibition, %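 (about 12 µg/mL by stock and volumes)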 | actives 0.43% (n = 100,000) | AID 540299;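 active = mean of two replicates above 30%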;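 also: 0% = no compound and 100% = wells with inactive enzyme; the first replicate is given; strong numbers were not always called active; inactives centre near -10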
Target sequence (P9WNP5 whole entry, looked up): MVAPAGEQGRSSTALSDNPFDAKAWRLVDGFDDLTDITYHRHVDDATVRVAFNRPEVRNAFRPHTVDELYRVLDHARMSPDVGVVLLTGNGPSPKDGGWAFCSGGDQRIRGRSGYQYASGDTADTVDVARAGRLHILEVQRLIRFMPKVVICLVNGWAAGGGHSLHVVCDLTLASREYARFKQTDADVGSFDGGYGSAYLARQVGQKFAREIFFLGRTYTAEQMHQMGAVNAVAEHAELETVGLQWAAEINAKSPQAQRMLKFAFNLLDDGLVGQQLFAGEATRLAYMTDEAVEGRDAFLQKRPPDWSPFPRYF
MbtI inh = blocks the Mycobacterium tuberculosis siderophore enzyme MbtI | AID 493033 | actives 0.89% (n = 100,000) | purified MbtI enzyme, fluorescence intensity read-out | P9WFX0 | inhibition, %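 (about 17 µg/mL by stock and volumes)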;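 active = above 50% in both replicates, above 80% if mildly self-fluorescent; inactive = the rest, strongly fluorescent compounds included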;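 also: 0% = mean of negative and 100% = mean of positive controls; one replicate is shown; some compounds called inactive have numbers as strong as hits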
Polio RdRp inh = inhibitors of poliovirus RNA polymerase binding and polymerization. poliovirus polymerase elongation, fluorescence polarization; hits give low values. P03300. % elongation, % (compound at 16.7 µg/mL). actives 0.66% (n = 150,000); in the data active = % elongation below about 90%; also: some results filed as inactive read as strong as hits
Target sequence (P03300 1749-2209 limits assumed): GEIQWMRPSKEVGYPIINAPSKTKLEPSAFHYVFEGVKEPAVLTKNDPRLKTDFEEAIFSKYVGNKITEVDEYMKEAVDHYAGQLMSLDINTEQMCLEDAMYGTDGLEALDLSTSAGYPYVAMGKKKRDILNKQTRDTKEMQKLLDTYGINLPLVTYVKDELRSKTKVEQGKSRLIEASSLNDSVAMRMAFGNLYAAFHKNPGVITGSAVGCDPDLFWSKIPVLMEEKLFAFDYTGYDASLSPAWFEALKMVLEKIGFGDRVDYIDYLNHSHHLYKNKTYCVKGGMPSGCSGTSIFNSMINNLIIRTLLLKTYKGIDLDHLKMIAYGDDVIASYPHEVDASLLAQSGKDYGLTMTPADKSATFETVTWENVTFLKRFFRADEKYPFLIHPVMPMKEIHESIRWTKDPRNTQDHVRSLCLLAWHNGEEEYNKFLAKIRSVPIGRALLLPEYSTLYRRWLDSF
Polio RdRp inh intensity = further read-out of Polio RdRp inh, marked with its call; % elongation; measured here: total intensity read-out; formula for this scale not given here;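 total fluorescence in place of polarization; lower means less elongation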
Numbers without * were called inactive; i = inactive; . = no result given.

SMILES	MenB inh	MbtI inh	Polio RdRp inh	Polio RdRp inh intensity
Cc1cccc(CC(=O)NCc2ccc3[nH]c4c(c3c2)CCCC4)c1	-7	-5	101	104
CC(C)NC(=O)Cn1ccc2ccc(C#N)cc21	7	90	99	104
COCCn1c(C)cc(C(=O)Cn2cnc3c(cnn3C)c2=O)c1C	6	4	102	102
CC(C)(C)OC(=O)N1CCN(c2ccc(NC(=O)Cn3nnc(-c4ccccc4)n3)cc2)CC1	34	-6	100	101
CCCn1c(=O)c(C(N)=O)cn(C2CC2)c1=O	-10	-3	103	103
N#Cc1ccccc1NC(=O)Nc1cccs1	11	7	104	103
COc1ccc(S(=O)(=O)N(CCO)C2CCCCC2)cc1	5	.	102	107
CC(=O)N1CCN(C(=O)/C(C#N)=C/c2ccccc2)CC1	-20	3	105	105
O=C(O)COc1ccc(/C=N/O)cc1Br	6	-11	101	103
Cc1ccc(C2=NC3(CCNCC3)NC2=S)cc1	6	20	102	100
COc1ccc(OC)c(-n2cc(-c3ccccc3)nc2SC)c1	6	7	100	95
COCn1c(-c2ccccc2)nc2ccccc21	-14	i	98	103
CN(CC(=O)Nc1ccc2c(c1)OCO2)Cc1ccccc1	2	1	100	102
COc1cc2c(cc1NC(=O)c1ccccc1)oc1ccccc12	-54	70	103	108
COc1ccccc1C1=NOC(C(=O)N2CCCC2)C1 (stereo not drawn)	-10	67	103	102
Cc1cc(NC(=S)NCc2ccccc2)n[nH]1	-21	6	.	.
CN1CCN(C(=O)c2ccc(/C=C3/SC(=S)N(C)C3=O)cc2)CC1	-19	1	.	.
N#CCCN(Cc1cccnc1)C(=S)NC1CC2C=CC1C2 (stereo not drawn)	-19	-8	101	107
CC1CCCN(c2ccc3nc4ccccc4c(=O)n3n2)C1 (stereo not drawn)	9	20	102	100
O=C(NCc1ccccc1)C1CCCN(c2ncccn2)C1 (stereo not drawn)	-55	23	107	100
CC1Cc2ccccc2N1CC(=O)NCCCc1ccccc1 (stereo not drawn)	5	6	102	106
O=S(=O)(NCC(Nc1ccccc1)c1ccccc1)c1ccccc1 (stereo not drawn)	6	0	102	98
O=c1cc(Cl)nc2ccc(Cl)cn12	-14	28	108	112
Cc1cc(Cl)c(S(=O)(=O)N(C)CC(=O)O)cc1OCC(N)=O	-21	-1	102	102
CC1CC(=O)N(CC(=O)NCc2ccc3c(c2)OCO3)c2ccccc2S1 (stereo not drawn)	3	2	99	103
NS(=O)(=O)c1ccccc1NC(=O)NCc1ccc(F)cc1	8	2	102	104
COc1ccc(C(N)CC(=O)O)cc1 (stereo not drawn)	-3	.	98	101
C/C(C=Nc1c(C)n(C)n(-c2ccccc2)c1=O)=C/c1ccccc1	-2	.	109	109
Cc1nn(-c2ccccc2)c(CSCC(=O)Nc2ccc3c(c2)OCO3)c1C#N	-27	4	102	102
CC1=NN(c2ccc(Cl)cc2)C(=O)C1	-149	5	102	101
O=C(Nc1ccc2c(c1)OCO2)C1Sc2nc(-c3ccccc3)cn2N=C1c1ccccc1 (stereo not drawn)	-12	-2	96	102
CC1(C)CC(=O)C2=C(C1)OC1=C(C(=O)CC(C)(C)C1)C2c1ccc2c(c1)OCO2	-14	-11	101	100
COc1cc(C(=O)NC(Cc2ccccc2)c2nc3ccccc3[nH]2)cc(OC)c1OC (stereo not drawn)	-3	-1	100	102
COc1ccc2c(c1)c1nc(SC)n(C)c(=O)c1n2C	-31	-7	103	104
CC(=O)Oc1cccc(-c2nc(C#N)c(N)o2)c1	-14	102	103	101
O=c1[nH]c(O)c(C=NCC2CCCCC2)c(=O)[nH]1	-3	18	101	105
CCCn1c(N)cc(=O)n(C)c1=O	-24	-5	104	103
N#Cc1c(-c2ccco2)cc(-c2ccccc2)nc1N	-9	116	102	108
CCOC(=O)C1=C(CSc2nnc(SCC)s2)NC(=O)NC1CC (stereo not drawn)	-14	-3	109	117
O=C(Cc1ccccc1)Oc1cccc(-n2cnnn2)c1	-69	-28	104	100
CCn1c(CN2CCc3sccc3C2c2cccs2)nc2cc(S(=O)(=O)N(C)C)ccc21 (stereo not drawn)	-15	-9	106	102
CC1CCCC(C)N1CC(O)Cn1cc(/C=N/NC(=O)c2ccncc2)c2ccccc21 (stereo not drawn)	-16	-3	103	103
CCS(=O)(=O)c1ccc2oc(SCc3cn4ccccc4n3)nc2c1	2	17	113	145
O=C(NCC(c1ccc(F)cc1)N1CCOCC1)c1ccc(Br)o1 (stereo not drawn)	.	4	100	102
S=c1[nH]nc(CN2CCOCC2)n1-c1ccccc1	5	.	102	111
COc1ccc(OCC(O)CN2CCN(C)CC2)cc1 (stereo not drawn)	6	.	102	95
CCN1C(=O)C(C(=O)NC(C)c2ccccc2)C2CC1(C)Oc1ccccc12 (stereo not drawn)	26	2	99	104
C=CCc1ccc(OC(C)C(=O)NC(=O)NC)c(OC)c1 (stereo not drawn)	-9	10	104	111
CC1C(O)C(C)C(c2ccccc2)N(C)C1c1ccccc1 (stereo not drawn)	2	17	102	99
COc1ccc(CN=C(Nc2ccccc2)SC2CC(=O)N(C)C2=O)cc1 (stereo not drawn)	-13	.	108	106
CCc1ccccc1OC(=O)c1ccc2c(c1)OCO2	-6	-1	98	97
Cn1c(C(=O)O)cc2cc(Cl)ccc21	-8	78	101	106
Cn1cccc1CNCCN1CCOCC1	-24	0	100	88
Cc1c(C(=O)NN)sc2nc3n(c(=N)c12)CCC3	-9	-15	.	.
N=C1C(c2ccccc2)=C(O)CN1CC1CCCO1 (stereo not drawn)	-23	-3	104	101
CN(CCO)C(=O)c1ccc(-c2nn(C)c(=O)c3ccccc23)cc1	5	12	102	99
COC(=O)c1cccc(NC(N)=O)c1	-34	62	106	109
CC(=O)N1c2ccc(S(=O)(=O)N(C)Cc3ccco3)cc2CC1C (stereo not drawn)	-6	-23	100	103
CC(C)N(C(=O)N1CCC(c2ccccc2F)CC1)C(C)C	-45	-8	104	104
CC(C)C(C)(C#N)NC(=O)CSc1nnc(SCc2ccc(Cl)cc2)s1 (stereo not drawn)	-12	1	101	110

Pulled by structure from above (2):
SMILES	MenB inh	MbtI inh	Polio RdRp inh	Polio RdRp inh intensity
Cc1c(C(=O)NN)sc2nc3n(c(=N)c12)CCC3	-9	-15	.	.
N=C1C(c2ccccc2)=C(O)CN1CC1CCCO1 (stereo not drawn)	-23	-3	104	101

The list continues:
SMILES	MenB inh	MbtI inh	Polio RdRp inh	Polio RdRp inh intensity
CC1=C(C(=O)NN)Sc2ccccc2N1	7	6	92	97
COCC(=O)Nc1cccc(C(F)(F)F)c1	-19	-6	101	103
CN(NS(=O)(=O)c1ccc(C(F)(F)F)cc1)c1cnn(C)c(=O)c1Cl	-1	-3	100	102
O=C(COC(=O)c1ccccc1)Nc1ccc2c(c1)OCO2	-64	-2	102	105
CCOC(=O)C(C#N)=C1SC2CS(=O)(=O)CC2S1 (stereo not drawn)	23	-2	98	103
Cc1cc(C)c2[nH]c(=O)cc(C(=O)O)c2c1	-6	38	102	104
O=C(Cn1c(=O)c2c(ncn2Cc2ccccc2)n(Cc2ccccc2)c1=O)NC1CC1	11	-3	105	109
O=C(Nc1ccccc1)n1nccc1-c1cc(-c2ccccc2)no1	5	7	103	101
CC1=NN(c2ccccc2)C(=S)/C1=C\N1CCCCC1	-40	98*	104	105
COc1ccc(OC)c(CCNC(=O)C2CCCN(c3ncnc4onc(C)c34)C2)c1 (stereo not drawn)	14	5	100	101
C[C@H](NS(=O)(=O)c1ccccc1)C(=O)Nc1ccc(S(=O)(=O)N2CCCC2)cc1	-4	-10	106	117
CC1=CC(=O)C2=C(C)CC[C@@H]3[C@H](OC(=O)[C@H]3C)[C@@H]12	6	-6	98	102
CNS(=O)(=O)c1ccc2c(c1)oc(=O)c1cc(S(=O)(=O)NC)ccc12	-11	25	101	107
Cc1cc(C)c2oc(C(=O)N3CCN(c4cccc(Cl)c4)CC3)cc(=O)c2c1	1	-16	98	101
O=C(c1ccco1)N(Cc1nc(-c2ccccc2)no1)C1CCCCC1	-16	-1	103	100
CCCCn1cc(/C=N/NC(=O)c2cc3cc(OC)ccc3n2C)c2ccccc21	-3	-111	99	103
Cc1cc(C)n(CCCNC(=O)CSc2nc(C)c(C)n2C2CCCCC2)n1	-12	-2	105	106
CC[N+](CC)(CC(=O)Nc1c(C)cccc1C)Cc1ccccc1	11	1	99	98
CCc1ccc(C(=O)OCC(=O)N2CCCc3ccccc32)cc1	-37	-10	100	97
CCc1nnc(NC(=O)CC2CC3CCC2C3)s1 (stereo not drawn)	-12	-2	103	102
COc1ccc(CN2C(=O)C(F)(F)C2c2cccc(Cl)c2)cc1 (stereo not drawn)	.	1	102	103
CCn1nc(C(=O)N2CCCSC2=Nc2ccccc2)c2ccccc2c1=O	-7	-15	104	97
O=C(N=CNC(=O)c1cccnc1)c1cccnc1	-4	.	108	110
Cc1cc(C)c2oc(-c3ccc(N)cc3O)nc2c1	-15	.	101	109
O=P(c1ccccc1)(c1nc2ccccc2s1)N1CCCCC1 (stereo not drawn)	-21	15	102	108
O=C(O)C1Cc2ccccc2CN1C(=O)CSc1nnc2ccccn12 (stereo not drawn)	-11	-14	98	99
Cc1c(C(=O)N(CC(F)(F)F)C(C)C2CC2)oc2c(F)cccc12 (stereo not drawn)	-36	-5	109	107
CC(=O)Nc1nc(CSc2nnnn2-c2ccc(Cl)cc2)cs1	-19	10	100	102
CCOC(=O)c1cnc2ccc(C(=O)OC)cc2c1NCc1cccnc1	-2	53	100	103
O=C1OC(c2ccccc2)C(O)(c2ccccc2)C12CCCCC2 (stereo not drawn)	-3	0	103	108
CCN(Cc1ccccc1)C(=O)CSc1nc(C)c(Cl)c(C)c1C#N	-1	.	110	119
O=C(Nc1cccc(Cl)c1)NC1CCN(C2CCCCC2)C1 (stereo not drawn)	0	.	103	106
CCCCCC1C(O)CCC1CC(=O)NN (stereo not drawn)	1	-2	100	101
CC1CCCCN1S(=O)(=O)c1ccc(NC(=O)/C=C/c2ccco2)cc1 (stereo not drawn)	-33	14	105	103
O=C(CNS(=O)(=O)Cc1ccccc1)NCc1ccccc1	-9	-4	102	110
O=c1[nH]cc(NCc2ccco2)c(=O)[nH]1	-12	18	100	99
CCOC(=O)/C(C#N)=C\Nc1ccc(-c2nnc(C(F)(F)F)o2)cc1C	-1	31	98	98
C#CCOC1(C)COC(C)(OCC#C)CO1 (stereo not drawn)	-16	4	104	102
COc1ccc(S(=O)(=O)NCCC(=O)NC2CCCCC2)cc1	-3	-13	96	98
Cc1ccc(C)c(NC(=O)c2ccc(-n3cnnc3)cc2)c1	-15	-4	103	102
CCOC(=O)c1c(N)n(CCc2ccccc2)c2nc3ccccc3nc12	1	9	101	102
Cc1[nH]c2ccc(C(=O)OC3CCOC3=O)cc2c1C (stereo not drawn)	9	53	97	97
c1ccc2c(c1)nc(SC1CCCCC1)c1nncn12	1	4	102	100
COC(=O)c1ccc(NC(=O)COC(=O)C2=NN(c3ccccc3)C(=O)CC2)cc1	-26	-3	108	110
CC1CCN(C(=O)CN(C)S(=O)(=O)c2ccc3ccccc3c2)CC1	-1	7	103	102
COc1ccccc1N1C(=O)CCC1(C#N)c1ccc(OCc2ccccc2)cc1 (stereo not drawn)	-22	13	101	97
C=CCNC(=O)c1ccc2c(c1)N(Cc1cccc(Cl)c1)C(=O)c1ccccc1S2	-5	-1	98	102
CCC(=O)Nc1cc(C(=O)O)ccc1Sc1ccc(OC)cc1	-81	11	103	101

Structures from the list above that have an aryl methoxy group:
SMILES	MenB inh	MbtI inh	Polio RdRp inh	Polio RdRp inh intensity
COc1ccc(S(=O)(=O)N(CCO)C2CCCCC2)cc1	5	.	102	107
COc1ccc(OC)c(-n2cc(-c3ccccc3)nc2SC)c1	6	7	100	95
COc1cc2c(cc1NC(=O)c1ccccc1)oc1ccccc12	-54	70	103	108
COc1ccccc1C1=NOC(C(=O)N2CCCC2)C1 (stereo not drawn)	-10	67	103	102
COc1ccc(C(N)CC(=O)O)cc1 (stereo not drawn)	-3	.	98	101
COc1cc(C(=O)NC(Cc2ccccc2)c2nc3ccccc3[nH]2)cc(OC)c1OC (stereo not drawn)	-3	-1	100	102
COc1ccc2c(c1)c1nc(SC)n(C)c(=O)c1n2C	-31	-7	103	104
COc1ccc(OCC(O)CN2CCN(C)CC2)cc1 (stereo not drawn)	6	.	102	95
C=CCc1ccc(OC(C)C(=O)NC(=O)NC)c(OC)c1 (stereo not drawn)	-9	10	104	111
COc1ccc(CN=C(Nc2ccccc2)SC2CC(=O)N(C)C2=O)cc1 (stereo not drawn)	-13	.	108	106
COc1ccc(OC)c(CCNC(=O)C2CCCN(c3ncnc4onc(C)c34)C2)c1 (stereo not drawn)	14	5	100	101
CCCCn1cc(/C=N/NC(=O)c2cc3cc(OC)ccc3n2C)c2ccccc21	-3	-111	99	103
COc1ccc(CN2C(=O)C(F)(F)C2c2cccc(Cl)c2)cc1 (stereo not drawn)	.	1	102	103
COc1ccc(S(=O)(=O)NCCC(=O)NC2CCCCC2)cc1	-3	-13	96	98
COc1ccccc1N1C(=O)CCC1(C#N)c1ccc(OCc2ccccc2)cc1 (stereo not drawn)	-22	13	101	97
CCC(=O)Nc1cc(C(=O)O)ccc1Sc1ccc(OC)cc1	-81	11	103	101

Assay outcomes as filed in PubChem.
